GALR2 agonist – GALR2 (human) receptor agonism | O43603 | GALR2-expressing cells, agonist activation read-out | activation, %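 (tested at 5 µM)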 | hit rate 0.48% among 140,000 | AID 803;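 active = above mean plus 3 SD of all compounds, about 5% in these data, not always enough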;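 also: 0% = vehicle buffer wells and 100% = reference agonist at full effect; tested in CHO reporter cells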
Target sequence (O43603 whole entry, looked up): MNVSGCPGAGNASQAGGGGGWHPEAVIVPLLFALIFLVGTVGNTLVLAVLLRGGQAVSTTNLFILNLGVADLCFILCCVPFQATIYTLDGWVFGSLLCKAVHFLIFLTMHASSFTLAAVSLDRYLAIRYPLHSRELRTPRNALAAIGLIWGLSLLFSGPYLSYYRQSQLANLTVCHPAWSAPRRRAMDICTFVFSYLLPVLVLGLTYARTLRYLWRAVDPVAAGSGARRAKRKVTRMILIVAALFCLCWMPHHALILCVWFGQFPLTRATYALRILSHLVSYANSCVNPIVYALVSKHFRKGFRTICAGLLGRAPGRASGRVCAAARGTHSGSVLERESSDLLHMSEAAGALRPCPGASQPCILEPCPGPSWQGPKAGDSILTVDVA
PKD1 kinase inh – blocks activity of human protein kinase D1; PKD1 kinase fluorescence polarization assay; AID 797; Q15139; hit rate 0.056% among 200,000; inhibition, %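 (about 10 µM by stock and volumes)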;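 active = inhibition of 50% or more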;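 also: controls were vehicle for no effect and a reference inhibitor for full effect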
RGS16-Gao – regulators of human RGS16-Galphao interaction; O15492+P09471; bead-based flow cytometry RGS16-Galphao binding, fluorescence; actives lie on both sides; binding response (% of control), % at 10 µM; hit rate 0.38% among 220,000; AID 1441;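 active = below 25% or above 175%, edge rows of some plates excepted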;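 also: Galphao activated by GDP with aluminum fluoride before binding; 100% = wells without compound and 0% = beads without RGS; some results beyond the cut were filed as inactive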
Target sequence (O15492 whole entry, looked up): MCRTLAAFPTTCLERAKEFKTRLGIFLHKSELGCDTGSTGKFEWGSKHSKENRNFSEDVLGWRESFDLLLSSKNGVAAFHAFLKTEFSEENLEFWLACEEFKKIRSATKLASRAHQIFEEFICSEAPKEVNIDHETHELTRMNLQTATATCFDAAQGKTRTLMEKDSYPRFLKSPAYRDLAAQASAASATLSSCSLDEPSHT
Target sequence (P09471 whole entry, looked up): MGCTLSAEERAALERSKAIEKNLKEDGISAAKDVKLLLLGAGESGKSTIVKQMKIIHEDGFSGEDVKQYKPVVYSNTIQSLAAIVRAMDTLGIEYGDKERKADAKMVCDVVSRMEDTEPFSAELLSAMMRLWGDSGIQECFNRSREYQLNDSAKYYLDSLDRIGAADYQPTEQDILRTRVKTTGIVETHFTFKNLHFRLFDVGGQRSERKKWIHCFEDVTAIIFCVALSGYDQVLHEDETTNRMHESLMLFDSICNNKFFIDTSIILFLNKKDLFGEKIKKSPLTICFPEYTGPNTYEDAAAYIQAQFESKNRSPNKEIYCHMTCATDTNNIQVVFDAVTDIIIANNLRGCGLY
Insulin prom inh – TRM-6 insulin promoter activity inhibition. TRM-6 cells (human fetal islet line), insulin promoter-eGFP reporter, imaging; reporter expression induced with tamoxifen. inhibition, % at 2 µM. hit rate 0.9% among 130,000;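 active = inhibition above the mean plus 3 SD, with well images judged a real hit on visual review, cut at about 60% in these data, passing the limit was not always enough; inconclusive = inhibition over the cutoff but images rejected on review; inactive = inhibition not above the cutoff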
HSV augment – HSV replication enhancement; maximum fold increase; HSV replication augmentation in cells, fold increase; hit rate 0.005% among 220,000;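 active = peak rise of 1.5-fold or more in the series; inconclusive = self-fluorescent or not available for retest; tested in PC3 cells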;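 also: first round at 10 µM; read as green reporter fluorescence; hits show the peak of a series up to 25 µM; 1 = signal of infected wells without compound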
Insulin prom inh cell count – also measured in Insulin prom inh; calls as there; normalized cell count, %; measured here: cell count, toxicity; reference of the scale not given here;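 cells exposed to compound for 48 h; stained nuclei by imaging scaled within each plate; lower means fewer cells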
HSV augment primary fold – also measured in HSV augment; calls as there; fold increase; compound at 10 µM; measured here: primary screen fold increase 10 uM; tested in PC3 cells;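 GFP signal in the first replicate; 1 = infected wells without compound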
The depositor's hits bear a star; i = inactive; ? = inconclusive; . = not tested or not shown; & = joins results of further samples.

compound	GALR2 agonist	PKD1 kinase inh	RGS16-Gao	Insulin prom inh	Insulin prom inh cell count	HSV augment	HSV augment primary fold
CCn1c(CN2CCN(c3cccc(C)c3C)CC2)n[nH]c1=S	-0.5	-15.1	102.9	0.0	160.1	i	0.97
CN1C(=S)SC(/[N+]([O-])=C\c2cccs2)C1(C)C (stereo unspecified)	-0.7	-4.5	106.3	10.0	53.1	i	1.05
Cc1nc2sc(C(=O)Nc3ccccc3)c(N)c2c(C)c1[N+](=O)[O-]	.	0.1	50.4	-36.4	88.0	i	0.85
Cc1ccc(C(=O)Nc2c(-c3cccs3)nc3cc(C)ccn23)cc1	-0.6	-10.4	97.5	21.4	99.0	i	0.99
Cc1cc(=O)oc2cc(OCC(O)CN3CCN(c4ccccc4)CC3)ccc12 (stereo unspecified)	-2.0	11.5	96.1	-2.8	124.3	.	.
COC(=O)c1ccc(CSc2ncn[nH]2)o1	-0.4	5.6	104.1	.	.	i	0.86
CC(C)N=C1NN=C(c2ccc(Cl)c(Cl)c2)CS1	.	3.0	116.5	-23.5	118.6	i	0.89
O=C(Nc1ccc2sc3ccccc3c(=O)c2c1)c1ccccc1Cl	4.5	-21.6	90.3	-44.1	108.3	i	0.8
Fc1cccc(-c2cc3nc4c(c(N5CCC6(CC5)OCCO6)n3n2)CCCC4)c1	-0.2	-1.9	101.3	3.9	83.4	i	0.97
CC(=O)N1CCN(CCN=CC2=C(O)CC(c3ccco3)CC2=O)CC1 (stereo unspecified)	-0.3	-7.0	99.3	.	.	i	0.83
COc1cccc(CC(NC(C)=O)C(=O)NC2CCN(S(=O)(=O)c3ccc(NC(C)=O)cc3)CC2)c1 (stereo unspecified)	.	-2.4	103.3	.	.	i	1.14
O=C1/C(=C/c2ccc(O)cc2)CCc2ccc([N+](=O)[O-])cc21	-1.4	-1.3	114.9	6.7	119.8	i	0.88
O=C(Cc1ccccc1)NCC(=O)N1CCCCCC1	-1.8	8.3	98.6	-13.8	242.7	i	0.87
COc1ccc(CNC(=O)C2COc3ccccc3O2)cc1 (stereo unspecified)	-2.0	-7.5	102.5	37.1	100.2	i	1.21
Cc1ccc(C(=O)Oc2cccc(NC(=O)c3ccco3)c2)cc1S(=O)(=O)N1CCC(C)CC1	-1.9	5.4	100.5	6.5	120.5	i	0.77

(list continues)
compound	GALR2 agonist	PKD1 kinase inh	RGS16-Gao	Insulin prom inh	Insulin prom inh cell count	HSV augment	HSV augment primary fold
Cc1cc(=O)oc2cc(OCCC[n+]3ccccc3)ccc12	.	.	93.4	.	.	i	1.01
COC(=O)CS(=O)(=O)c1cc([N+](=O)[O-])ccc1NC(=O)OC	.	-7.7	99.8	-7.1	103.8	i	0.9
CCn1c(COc2ccccc2C)nnc1SCC(=O)CC(=O)Nc1ccccc1OC	-1.0	-2.1	334.7	.	.	i	1.1
COc1cc([N+](=O)[O-])ccc1NC(=O)Cn1ccsc1=N	.	0.9	96.9	.	.	i	0.89
COC(=O)CN(C)C1CC(=O)N(c2ccc(Cl)cc2)C1=O (stereo unspecified)	-2.1	-9.7	101.3	-65.0	120.2	i	0.88
CCCCC(=O)N/N=C(\C)CC(=O)Nc1cc(Cl)ccc1OC	-0.5	-8.2	101.0	17.4	111.2	.	.
C/C(=N\NC(=S)Nc1cccc(C)c1)c1ccccc1	-2.7	8.4	92.5	.	.	?	.
O=C(Cc1ccc(-n2cccc2)cc1)N1CCc2ccccc21	-2.5	-1.5	91.5	.	.	i	1
CN(c1ccc(C(=O)NCCSC(C)(C)C)cc1)S(C)(=O)=O	-1.2	0.2	119.7	-19.1	119.9	i	0.91
CCOc1ccc(CC(=O)Nc2ccc(-c3ccc4nnc(C)n4n3)cc2)cc1	.	-4.4	103.8	-5.6	103.9	i	0.91
CCOC(=O)c1cccc(NC(=O)CS(=O)(=O)Cc2nc(-c3cccc(OC)c3)oc2C)c1	-0.8	-2.1	99.6	-93.8	77.5	i	0.83
CCC(C)NC(=O)CSc1nnc(-c2ccncc2)n1-c1ccc(OC)cc1 (stereo unspecified)	-4.6	9.0	103.8	42.9	166.6	i	0.88
COc1ccc(C(=O)C(/C=N/O)=N/Nc2ccc(F)cc2)cc1	.	-0.1	98.8	12.5	112.7	i	0.9
O=C(CSc1n[nH]c(=O)n1-c1cccnc1)N1CCOCC1	.	.	99.0	.	.	i	0.96
O=C(CN1CCC(C(=O)c2cccc(Cl)c2)CC1)Nc1cccc(C(=O)O)c1	.	2.3	113.9	.	.	i	1.01

Continuation:
compound	GALR2 agonist	PKD1 kinase inh	RGS16-Gao	Insulin prom inh	Insulin prom inh cell count	HSV augment	HSV augment primary fold
Cc1cccc(CN2CCN(Cc3cnn(-c4ccccc4F)c3)CC2CCO)n1 (stereo unspecified)	.	9.2	101.1	.	.	i	0.93
CN(Cc1cccc(F)c1)CC(O)COCc1ccccc1Cl (stereo unspecified)	.	10.3	95.2	54.5	152.2	i	0.87
CC(C)=CCc1c2c(c3occ(-c4ccc(O)cc4)c(=O)c3c1O)C=CC(C)(C)O2	.	6.8	101.5	.	.	i	0.755
COc1ccc(N2CCC(CNC(=S)Nc3c(C)cccc3C)C2)cc1 (stereo unspecified)	.	.	101.4	.	.	i	0.9
COc1cccc(NC(=O)N(CCCN2CCOCC2)C(C)c2cc3cccc(OC)c3o2)c1 (stereo unspecified)	-2.3	-5.3	99.3	-56.4	91.2	i	1.03
Cc1noc(C)c1COc1ccc(C(=O)OCc2nnc(-c3ccc(Cl)cc3)o2)cc1	0.0	4.9	112.2	.	.	i	1
COc1cccc(C(=O)NNC(=O)c2ccccc2Br)c1	0.4	11.6	105.0	-16.7	79.2	i	0.96
Cc1ccc(CC(=O)N2CCN(c3ccccn3)CC2)cc1	-2.8	-2.4	102.2	7.0	116.7	i	0.993
CN(Cc1ccccc1)C(=O)C1CCN(S(=O)(=O)c2cc([N+](=O)[O-])ccc2Cl)CC1	4.5	9.4	102.0	.	.	i	0.98
O=C(NCCc1ccccc1)C(=O)NCC1CCNCC1	.	0.0	103.3	.	.	i	1
CCOC(=O)Cn1nc(C)c(NC(=O)COc2cccc(Cl)c2)c1C	.	-3.3	105.9	0.0	171.3	i	1.03
COc1ccc(CCNC(=O)CSc2nnnn2-c2ccccc2OC)cc1OC	-1.0	-15.7	63.9	.	.	i	0.61
Cc1ccc(C2NC(c3ccc(C)cc3)C(C)C(=O)C2C)cc1 (stereo unspecified)	.	.	103.2	.	.	i	1.04
CCNc1nc(NC(C)C)nc(N(C#N)CCOc2ccccc2)n1	-1.0	-3.8	99.3	57.1	73.2	i	0.97
COC(=O)c1[nH]c(C)c(/C(O)=C2\C(=O)C(=O)N(CCCN3CCOCC3)C2c2ccccn2)c1C (stereo unspecified)	-0.4	-2.3	101.3	-6.7	107.9	i	0.953

Part of the list above, set out differently:
Below each SMILES: GALR2 agonist | PKD1 kinase inh | RGS16-Gao | Insulin prom inh | Insulin prom inh cell count | HSV augment | HSV augment primary fold
Cc1ccc(C(=O)Oc2cccc(NC(=O)c3ccco3)c2)cc1S(=O)(=O)N1CCC(C)CC1
 : -1.9 | 5.4 | 100.5 | 6.5 | 120.5 | i | 0.77
Cc1cc(=O)oc2cc(OCCC[n+]3ccccc3)ccc12
 : . | . | 93.4 | . | . | i | 1.01
COC(=O)CS(=O)(=O)c1cc([N+](=O)[O-])ccc1NC(=O)OC
 : . | -7.7 | 99.8 | -7.1 | 103.8 | i | 0.9

New compounds follow
compound	GALR2 agonist	PKD1 kinase inh	RGS16-Gao	Insulin prom inh	Insulin prom inh cell count	HSV augment	HSV augment primary fold
COc1ccc(OCCNC(=O)CSc2ccc(C(F)(F)F)cc2[N+](=O)[O-])cc1	-2.8	-6.5	49.5	-11.5	122.2	i	0.96
Cc1c(CCOC(=O)c2cc([N+](=O)[O-])cc([N+](=O)[O-])c2)sc[n+]1CC(=O)c1ccc(Br)cc1	.	-5.8	100.4	.	.	i	0.92
COC(=O)c1ccc(Oc2nc(N3CCCCC3)nc(N3CCOCC3)n2)cc1	-2.9	-5.4	100.2	45.7	76.8	i	0.77
CC(=O)c1cccc(NC(=O)CSc2nnc(-c3cccnc3)o2)c1	-2.5	-5.8	90.5	-468.8	42.8	i	1.03
COC(=O)c1c(N)n(-c2cc(OC)cc(OC)c2)c2nc3ccccc3nc12	0.2	-0.4	.	25.0	96.3	.	.
O=C(CCN1C(=O)c2ccccc2C1=O)N1CCN(C(=O)c2ccccc2)CC1	-2.9	-4.9	112.1	-13.3	107.7	i	0.953
COc1ccccc1NC(=O)CCS(=O)(=O)c1ccccc1	.	-3.5	114.2	.	.	i	1.18
COCCNC(=S)Nc1cc(OC)c(OC)cc1C#N	.	-0.8	97.7	.	.	i	1.01
CC(Cc1ccccc1)C(=O)Nc1ccccc1 (stereo unspecified)	-2.1	-2.2	124.5	23.8	83.2	?	.
CCn1c(SCC(=O)N(C(C)C)C(C)C)nnc1-c1cc2ccccc2cc1O	0.3	11.4	92.1	6.5	105.0	i	1.13
Cc1cccc(C(=O)NC2CCN(C(=O)N3CCOCC3)CC2)c1	0.9	-10.9	103.9	5.6	73.5	i	0.84
CCN(CC)c1ccc(CN2CCC(C(=O)NCc3ccc(C)cc3)CC2)cc1	.	1.3	170.1	-12.5	115.4	i	0.92
CC(C)CC1C(C#N)=C(N)Oc2n[nH]c(-c3ccccc3)c21 (stereo unspecified)	-2.7	-4.7	111.8	-47.6	116.4	i	0.86
O=C1C2CCCN2C(c2ccccc2F)N1c1ccc(F)cc1 (stereo unspecified)	-2.5	-2.4	103.1	.	.	i	0.83
O=C(c1cccc2ccccc12)C1CCCN(C(=O)CCc2cnccn2)C1 (stereo unspecified)	.	1.0	104.8	-21.7	155.3	i	0.95

(cont.)
compound	GALR2 agonist	PKD1 kinase inh	RGS16-Gao	Insulin prom inh	Insulin prom inh cell count	HSV augment	HSV augment primary fold
Cc1cc(Cl)ccc1N(CC(=O)NCCSCc1ccco1)S(C)(=O)=O	.	2.3	104.4	13.3	94.1	i	1.05
CCc1ccn2cc(-c3cc(-c4ccccc4)no3)nc2c1	.	.	99.3	.	.	i	0.96
CCNc1nc(NCC)nc(SCCOC(=O)Nc2ccccc2)n1	1.0	-8.5	93.8	62.5	129.8	i	0.93
Cc1ccc(-c2nn(-c3cccc(F)c3)cc2CNCc2cccnc2)o1	.	-8.5	111.6	.	.	i	0.9
CCOC(=O)c1ccccc1NC(=O)c1cc2sccc2n1C	-2.8	-8.8	102.3	25.7	150.0	i	1.12
O=C(O)CN1CCNCC1	-3.7	4.2	103.6	-64.3	90.5	i	1.08
Cn1c(SCC(=O)c2cc3ccccc3o2)nnc1-c1ccccc1	-0.9	3.8	92.2	.	.	i	0.98
COc1ccc(CC(=O)NCC(=O)N/N=C(/C)c2ccco2)cc1	.	-4.3	108.2	-25.0	132.0	i	1.03
Cc1cnc(C(=O)OCC(=O)N(C(C)C)C(C)C)cn1	-2.0	-11.3	99.0	48.6	68.0	i	0.89
Cc1ccc(NC(=O)C2CCCN2S(=O)(=O)c2ccc3c(c2)n(C)c(=O)c(=O)n3C)cc1C (stereo unspecified)	-0.8	-3.0	108.2	-65.8	96.4	.	.
COc1cccc(OCc2nc3ncc(Br)cc3[nH]2)c1	-0.1	-0.2	108.7	.	.	i	0.62
COc1ccc(-n2c(=S)[nH]c3cc(C(=O)NCc4ccco4)ccc3c2=O)cc1OC	-0.4	-3.9&-10.1	98.7&103.9	.	.	i	0.75&0.98
CCCCCCCn1c(NC(=O)CC)nc2ccccc21	.	.	101.5	.	.	i	0.88
O=C(O)c1ccc(Nc2nc(-c3ccccc3)c3ccccc3n2)cc1	.	1.5	101.4	.	.	i	0.93
Cc1ccc(S(=O)(=O)NCC(c2ccccc2)N2CCCCC2)cc1 (stereo unspecified)	.	.	104.0	.	.	i	0.91
Cc1cccc2cc(CN(CC3CCCO3)C(=O)c3ccco3)c3nnnn3c12 (stereo unspecified)	.	-4.4	98.6	17.1	85.2	i	0.91
CCOc1ccc(CCNC(=O)COC(=O)c2ccccc2O)cc1OCC	.	-3.8	99.5	.	.	i	0.91

Looked up by structure from the entries so far (four):
compound	GALR2 agonist	PKD1 kinase inh	RGS16-Gao	Insulin prom inh	Insulin prom inh cell count	HSV augment	HSV augment primary fold
O=C(O)CN1CCNCC1	-3.7	4.2	103.6	-64.3	90.5	i	1.08
CCCCCCCn1c(NC(=O)CC)nc2ccccc21	.	.	101.5	.	.	i	0.88
Cc1ccc(-c2nn(-c3cccc(F)c3)cc2CNCc2cccnc2)o1	.	-8.5	111.6	.	.	i	0.9
Cc1cnc(C(=O)OCC(=O)N(C(C)C)C(C)C)cn1	-2.0	-11.3	99.0	48.6	68.0	i	0.89

Source: PubChem BioAssay (several laboratories)
